LANA-H2B inh: blockers of LANA interaction with H2A/H2B – biochemical, FP readout, HTS, primary screen | inhibition, % (test concentration not listed) | AID 2629, 2010 | Protein LANA1 (Human herpesvirus 8 type P (isolate GK18)), Q9QR71 | actives 0.6% (n = 320,000) | cell-free LANA-H2A/H2B peptide, fluorescence polarization; in the data active = inhibition mostly above about 10%, no sharp cut-off; inactive = mostly below about 6.7%;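 note: stock transfer was 7.5 nL into about 10 µL; 0% = median of vehicle wells and 100% = median of positive control wells; one replicate is shown; the record names a cut of 25% in any replicate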
A1 inh: caspase 3/7 activation in MEF A1-2A-BIM cells, primary screen, A1 inhibitor project, cell-based, luminescence, HTS. caspase activation, % (test concentration not listed). Caspase-Glo 3/7 luminescence, 3 h; percent of clofoctol response, vehicle zero. actives 0.066% (n = 330,000);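 active = over half of replicate activation scores above 10%, or exactly half above 10 with the replicate mean above 10; inconclusive = replicate mean below 10 yet half the replicates above 10; inactive = over half of replicates below 10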;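 note: wells of about 30 µL received 50 nL stock; many hits fall short of the cut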
Ecoli rRNA inh: reduced GFP signal of wild-type E. coli, primary screen, bacterial rRNA inhibitor project, GFP/RFP fluorescence, OD600, single point | GFP signal change (wild-type ribosome), % (no concentration beside the values) | AID 720706, 2013 | actives 1.6% (n = 350,000) | E. coli WT GFP vs humanized-ribosome RFP mutants, 24 h; active compounds read low; DMSO median 0, no signal -100;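 active = significant combined selectivity score with lowered wild-type GFP, culture density cut under 30%, mutant RFP and density less affected; inactive = any of these conditions unmet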; note: one replicate is shown; some compounds called inactive have numbers as strong as hits
Calb FLC: C. albicans growth inhibition with fluconazole, primary screen, CaCi-2 strain, Alamar Blue fluorescence; C. albicans CaCi-2 (fluconazole-resistant clinical isolate) + fluconazole, 48 h; growth inhibition, % (no concentration beside the values); actives 0.57% (n = 300,000); AID 1979, 2009;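 active = most replicates above 75%; inconclusive = exactly half above 75%; inactive = most below 75%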;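 note: all wells also contain fluconazole at 8 µg/ml as a sub-toxic cotreatment; 0% = median of DMSO wells and 100% = median of geldanamycin control wells; wells of about 8 µL received 7.5 nL stock; the first replicate is given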
Beta cell apopt: inhibitors of cytokine-induced beta cell apoptosis, primary screen, luminescence; actives 0.8% (n = 300,000); INS-1E cytokine-induced death, ATP luminescence, 48 h; percent of positive-control rescue, neutral wells zero; protection from apoptosis, % (test concentration not listed);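 active = all replicates at 75% or more, or half of them and the mean; inconclusive = half reach 75% but not the mean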;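 note: 0% = cytokine-treated negative control wells and 100% = positive control rescue; higher means more ATP so stronger rescue from cytokine killing; wells of about 40 µL received 100 nL stock; the first replicate is given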
B2AR ag: beta2AR agonists driving receptor internalization, primary screen, cell-based, FAP fluorogen, flow cytometry; Beta-2 adrenergic receptor (Homo sapiens), P07550; Am2.2-beta2AR cells; reference of the scale not given here; response, % (test concentration not listed); actives 0.43% (n = 340,000); AID 504454, 2011;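 active = response above a set limit, near 3 SD of response in nonfluorescent compounds, cut at about 42% in these data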;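 note: stock transfer was 100 nL into about 11 µL; a reference agonist was the positive control; negative values mostly stem from fluorescent compounds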
Target sequence (P07550 whole entry, looked up): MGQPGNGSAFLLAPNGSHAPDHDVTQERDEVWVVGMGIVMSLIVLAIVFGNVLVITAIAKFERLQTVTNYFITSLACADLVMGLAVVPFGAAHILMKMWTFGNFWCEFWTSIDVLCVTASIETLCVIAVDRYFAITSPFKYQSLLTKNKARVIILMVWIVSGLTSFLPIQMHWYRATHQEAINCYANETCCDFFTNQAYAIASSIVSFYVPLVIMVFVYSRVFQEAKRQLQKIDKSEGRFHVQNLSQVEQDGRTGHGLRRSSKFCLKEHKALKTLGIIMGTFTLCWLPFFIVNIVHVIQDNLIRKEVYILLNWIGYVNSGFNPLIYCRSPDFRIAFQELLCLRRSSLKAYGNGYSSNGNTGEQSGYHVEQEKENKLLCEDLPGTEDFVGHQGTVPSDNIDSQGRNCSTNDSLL
ALR inh: inhibitors of human ALR sulfhydryl oxidase, primary screen, biochemical, H2O2 detection, HRP-luminol luminescence, single point. FAD-linked sulfhydryl oxidase ALR (Homo sapiens), P55789. purified ALR, DTT oxidation. inhibition, % (concentration not given with the values). actives 3.8% (n = 290,000). AID 485317, 2010;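 active = mean and each replicate at 75% or more; inconclusive = only one of the two met; inactive = neither met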;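 note: stock transfer was 7.5 nL into about 7.5 µL; 0% = neutral wells and 100% = wells with inactivated enzyme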
Target sequence (P55789 whole entry, looked up): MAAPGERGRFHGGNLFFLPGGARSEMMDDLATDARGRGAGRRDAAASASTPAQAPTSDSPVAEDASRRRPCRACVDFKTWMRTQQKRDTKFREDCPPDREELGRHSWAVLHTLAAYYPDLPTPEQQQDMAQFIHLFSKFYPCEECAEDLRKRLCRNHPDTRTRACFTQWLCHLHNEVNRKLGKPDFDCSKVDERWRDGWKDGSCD
T cruzi repl: inhibitors of intracellular T. cruzi growth, primary screen, luminescence, NIH3T3 host cells. T. cruzi beta-gal in NIH3T3, 90 h. inhibition, % (concentration not given with the values). actives 1.4% (n = 300,000);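 active = mean inhibition across valid replicates above about 55%, limit read from the data; inconclusive = mean below that limit but half or more replicates reach it; inactive = mean below it, under half of replicates reach it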;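 note: signal also drops with host cell toxicity which is not excluded here; 0% = plate median of DMSO wells and 100% = zero luminescence signal; higher percent means less beta-gal luminescence so fewer parasites; stock transfer was 50 nL into about 50 µL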
Ecoli rRNA inh OD600: second read-out of Ecoli rRNA inh, no call of its own (marks repeat the call); OD600 change, %; measured here: OD600 growth;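 optical density of the mix in the first replicate; 0 = DMSO median and -100 = no signal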
Ecoli rRNA inh RFP: recorded beside Ecoli rRNA inh, whose call it bears; RFP signal change, %; measured here: RFP humanized mutant strains;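 first replicate; 0 = DMSO median and -100 = no signal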
Active calls of the source: *; ? = inconclusive; · = no result given.

Value order: LANA-H2B inh, A1 inh, Ecoli rRNA inh, Ecoli rRNA inh OD600, Ecoli rRNA inh RFP, Calb FLC, Beta cell apopt, B2AR ag, ALR inh, T cruzi repl
> O=C(NC(Cc1c[nH]c2ccccc12)C(=O)O)c1ccco1 (stereo unspecified)
  0.9, -0.4, ·, ·, ·, -15, 6, 10, 9, -9
> COC(=O)c1ccc(NC(=O)NC2CCCCC2)cc1
  1.3, -1.3, 5, 7, 2.2, 1, ·, 0, -4, 9
> O=c1[nH]c2ccccc2c2cn(-c3ccccc3)nc12
  0.9, -1.1, -14, -40, -9.1, 2, -11, -11, -5, -7
> Cc1cc(=O)n2[nH]c(-c3cccc(Cl)c3)cc2n1
  -2.1, -0.8, 7, -5, -2.9, 0, -6, -8, -11, 10
> O=c1cc(CSc2nnc(-c3ccco3)o2)c2ccccc2[nH]1
  1.9, 1.2, ·, ·, ·, -3, -5, -11, -2, -4
> COc1ccc(S(=O)(=O)N(C)c2ccc(C(=O)NCCC(C)C)cc2)cc1
  -5.0, -0.3, -7, -12, 6.0, 8, 2, 18, 1, 1
> CCCn1c(SCC(=O)Nc2cccc(Cl)c2Cl)n[nH]c1=O
  -4.1, 0.7, 0, -9, -1.3, -6, 0, -1, -21, 2
> Cc1cccc(C(=O)NNC(=O)c2c(O)c3ccccc3n(C)c2=O)c1
  0.9, ?, 5, 4, -2.6, -4, -4, -3, 1, 9
> CCOC(=O)c1cc(-c2ccc(F)cc2)n(CC(=O)NCc2ccccn2)c1C
  -3.7, 0.0, -2, 5, -1.4, 9, -7, 9, 0, -10
> Cc1cccc(C)c1NC(=O)CSc1nnc(C2CCCCC2)o1
  3.2, -0.1, 1, 2, -2.4, -4, -1, -2, -1, 4
> O=C(CSc1n[nH]c(=O)n1C1CC1)c1ccc2c(c1)OCCO2
  -1.1, 1.2, 7, 4, -0.1, 18, -3, 4, -5, -24
> O=C(CSc1nc2[nH]ncc2c(=O)n1-c1ccccc1Br)NCc1ccccc1Cl
  -0.4, 0.7, -26, -45, 9.2, 0, -5, -2, -3, 11
> O=C(O)CC(NC(=O)C(c1ccccc1)c1ccccc1)c1cccc([N+](=O)[O-])c1 (stereo unspecified)
  -2.7, -0.2, 4, 9, -6.2, -18, -3, -3, -28, 7
> O=C(COC(=O)C1(c2ccccc2F)CCCC1)Nc1ncc(C(F)(F)F)cc1Cl
  -0.4, 0.4, ·, ·, ·, 8, 1, -2, -98, 8
> Cc1ccc(C)c(N2CCN(C(=O)c3ccc4nsnc4c3)CC2)c1
  5.9, 1.5, 0, -30, -3.3, 0, 4, -3, 1, 0
> COc1ccc(NC(=O)Cn2cc(C(=O)c3ccco3)c3ccccc32)cc1
  4.7, 0.0, ·, ·, ·, 13, -5, -2, -2, -2
> C/C(=N\OC(=O)c1ccccc1F)c1nccs1
  -4.0, 1.4, ·, ·, ·, 2, -7, -2, -8, -7
> Cc1csc2c(N3CCN(C(=O)NC(C)(C)C)CC3)ncnc12
  3.9, -0.2, -9, -6, -0.4, -4, 3, -7, -3, -9
> CC(C)(CO)CNC(=O)c1ccc(OC2CCN(C(=O)C3CC3)CC2)cc1
  -0.7, 0.3, 5, 4, -2.8, 4, 2, -1, -1, -7
> O=C(O)C1C2CCC(C2)C1C(=O)NCCC1=CCCCC1 (stereo unspecified)
  -3.0, -0.3, ·, ·, ·, -22, -1, 11, -1, 9
> CCCOc1ccc(CCC(=O)N/N=C/c2ccc([N+](=O)[O-])o2)cc1
  0.7, 0.1, ·, ·, ·, 1, 12, -9, ·, 52
> Cc1nnc(NC(=O)c2cccc(S(=O)(=O)N(C)c3cccc(Cl)c3)c2)s1
  2.6, 0.5, ·, ·, ·, ·, 3, 4, 7, ·
> O=C(c1cc2c(s1)-c1ccccc1OC2)N1CCN(c2ccccc2)CC1
  -1.6, -0.4, -11, -27, 10, 4, ·, -6, -12, -1
> CSCCC(NC(=O)/C(=C\c1ccco1)NC(=O)c1ccco1)C(=O)O (stereo unspecified)
  -5.1, -1.0, 9, 8, 0.8, 8, -2, -2, -16, -7
> COc1ccccc1CNC(=O)COC(=O)C12CC3CC(CC(O)(C3)C1)C2
  -2.5, 0.4, 2, 4, -2.1, ·, -4, 0, 2, ·
> COc1cccc(/C=C2\CC(C)Cc3c2nc2ccccc2c3C(=O)O)c1OC (stereo unspecified)
  5.3, 0.7, -5, -16, -1.2, -2, -9, -1, -4, 2
> COc1ccccc1C(=O)Nc1cc(C)c(OCC(=O)N2CCOCC2)c(C)c1
  -1.1, -0.8, -2, 2, -1.2, -4, -5, -12, 5, -5
> OCc1nc2ccccc2n1/N=C/c1cccs1
  0.5, 0.2, 5, 7, 0.7, -4, -3, -9, -4, 4
> COc1ccc(NC(=O)C(NC(=O)OC(C)(C)C)C(C)OCc2ccccc2)cc1 (stereo unspecified)
  1.8, 0.3, ·, ·, ·, -16, -7, 4, -2, -9
> O=C(CN1C(=O)NC(c2ccccc2)(c2ccccc2)C1=O)Nc1ccc2[nH]c(=O)[nH]c2c1
  0.8, 0.1, -4, -7, 2.2, -5, -2, -4, -1, 3
> COc1ccc(Cn2nc(C(=O)O)c3ccccc3c2=O)cc1F
  -2.3, 0.3, 4, 17, -2.5, 0, ·, -6, -11, 5
> COc1ccc(NC(=O)C2C3C=CC(C3)C2C(=O)NCc2ccccn2)c(OC)c1 (stereo unspecified)
  1.6, -0.1, ·, ·, ·, ·, 12, 1, 2, ·
> CCOc1nc(C)cc(COC)c1C(N)=O
  4.2, -0.3, 11, 11, -5.4, -7, 1, 3, 3, ·
> CCOc1ccc(N(CC(=O)N2CCOCC2)S(=O)(=O)c2ccc(Cl)cc2)cc1
  2.2, 0.8, -6, -5, 1.0, 1, -2, -12, -1, 9
> CN(C(=O)COC(=O)c1cc(=O)[nH]c2ccccc12)c1ccccc1
  1.6, 0.6, 5, 7, 3.3, ·, 1, -7, ·, ·
> CC(NC(=O)CCC(=O)NC(C)C1COc2ccccc2O1)C1COc2ccccc2O1 (stereo unspecified)
  -0.6, 0.1, ·, ·, ·, 12, -10, 2, -1, 4
> CCOC(=O)CSc1nnc(Cn2c(=O)sc3ccccc32)n1-c1ccccc1C
  -3.8, 0.0, 4, -3, 4.1, 2, -5, 11, ·, 1
> O=[N+]([O-])c1ccccc1S(=O)(=O)Oc1ccc(/C=N/n2cnnc2)cc1
  -6.2, -0.6, ·, ·, ·, 8, -4, -2, -9, 6
> CCCSc1nc(=S)n(Cc2ccccc2)c(C)c1C(C)=O
  -2.4, -0.7, -3, -4, 2.3, 20, 0, 7, -2, -15
> COCCNc1cc(-c2ccccc2)nc2cc(-c3cccc(F)c3)nn12
  -2.7, 0.4, -15*, 8.3*, -4.7*, 0, 18, 0, -3, 43
> O=c1[nH]c(/C(Cl)=C/c2cccc(C(F)(F)F)c2)nc2cc(Cl)ccc12
  ·, 0.1, ·, ·, ·, 18, 10, -2, ·, -7
> CCC(=O)Nc1ccc2c(c1)nc(CN1CCN(C(C)=O)CC1)n2C
  -3.5, 1.0, ·, ·, ·, -8, -4, -12, -9, -5
> COc1ccc(-c2[nH]ncc2CN(C)CC2CCCCO2)cc1F (stereo unspecified)
  -2.8, 0.6, 19, 12, 1.3, 2, -4, 11, 0, -11
> COc1ccc(CCC(=O)NNC(=O)c2ccc(OC)cc2)cc1
  2.7, -0.2, 6, 2, 0.4, -6, -5, 1, ·, -6
> COc1cc(NC(=O)c2cc3nc(C4CC4)cc(C(F)(F)F)n3n2)c(OC)cc1Cl
  0.2, 0.1, ·, ·, ·, 0, 15, 7, -9, 6
> Cc1onc(-c2ccccc2)c1C(=O)N/N=C/C=C/c1ccccc1
  -0.4, 0.4, 1, 8, -1.6, 1, 3, -11, -8, -8
> CCCn1nc(C(=O)N2CCN(S(=O)(=O)c3ccc(C)c(C)c3)CC2)c2ccccc2c1=O
  3.7, -2.0, -13, -31, 5.0, ·, 0, 13, 0, ·
> COC(=O)Cc1ccc(NC(=S)NN2CCOCC2)cc1
  -5.7, 1.3, 6, 17, 3.3, -21, 5, -6, 19, -6
> CC(C)c1ccccc1NC(=O)COC(=O)/C=C/c1cccc([N+](=O)[O-])c1
  5.5, 0.1, 10, 10, 0.8, -15, -13, 4, 12, 9
> CC(C)[C@H](NC(=O)C1CCN(S(=O)(=O)c2ccccc2)CC1)C(=O)NCc1ccncc1
  1.1, 0.3, 2, 7, 0.2, -6, -3, -3, 2, -5
> O=S(=O)(Nc1ccc(-c2ccc3nncn3n2)cc1)c1cc(F)ccc1F
  3.2, 0.3, 10, 12, -1.2, -4, -2, 7, -4, -5
> Cc1ccc(C(=O)NCc2ccc3c(c2)OCO3)cc1
  -0.3, -0.2, -2, -6, -2.7, -14, -5, 0, ·, -12
> CCOC(=O)C1CCCN(C(=O)CCCn2nc(C)n3c(cc4sccc43)c2=O)C1 (stereo unspecified)
  -3.5, 0.4, -6, -6, 1.1, 1, 4, -16, -5, -1
> CN1CCN(/N=C/c2ccc(OCc3ccccc3)cc2)CC1
  -1.0, ?, 7, 0, 0.5, -5, 0, 8, -8, 24
> O=C(N/N=C/C=C/c1ccccc1[N+](=O)[O-])c1cc(-c2cccnc2)nc2ccccc12
  2.8, -0.5, 5, 3, -2.9, 6, 4, 1, -7, -30

Screening data: PubChem, several laboratories

These rows are one share of the data (hit frequency here may not be typical).
